RecA splice inh = inhibitors of M. tuberculosis RecA intein splicing | cell-free RecA intein splicing, fluorescence | 290,000 tested, 0.75% active | AID 2221 | P9WHJ3 | inhibition, %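 (about 9 µM by stock and volumes)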; in the data active = inhibition above about 30%; inconclusive = no clear call, values can overlap the other calls;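 note: 0% = vehicle wells and 100% = reference inhibitor control wells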
Target sequence (P9WHJ3 whole entry, looked up, canonical isoform): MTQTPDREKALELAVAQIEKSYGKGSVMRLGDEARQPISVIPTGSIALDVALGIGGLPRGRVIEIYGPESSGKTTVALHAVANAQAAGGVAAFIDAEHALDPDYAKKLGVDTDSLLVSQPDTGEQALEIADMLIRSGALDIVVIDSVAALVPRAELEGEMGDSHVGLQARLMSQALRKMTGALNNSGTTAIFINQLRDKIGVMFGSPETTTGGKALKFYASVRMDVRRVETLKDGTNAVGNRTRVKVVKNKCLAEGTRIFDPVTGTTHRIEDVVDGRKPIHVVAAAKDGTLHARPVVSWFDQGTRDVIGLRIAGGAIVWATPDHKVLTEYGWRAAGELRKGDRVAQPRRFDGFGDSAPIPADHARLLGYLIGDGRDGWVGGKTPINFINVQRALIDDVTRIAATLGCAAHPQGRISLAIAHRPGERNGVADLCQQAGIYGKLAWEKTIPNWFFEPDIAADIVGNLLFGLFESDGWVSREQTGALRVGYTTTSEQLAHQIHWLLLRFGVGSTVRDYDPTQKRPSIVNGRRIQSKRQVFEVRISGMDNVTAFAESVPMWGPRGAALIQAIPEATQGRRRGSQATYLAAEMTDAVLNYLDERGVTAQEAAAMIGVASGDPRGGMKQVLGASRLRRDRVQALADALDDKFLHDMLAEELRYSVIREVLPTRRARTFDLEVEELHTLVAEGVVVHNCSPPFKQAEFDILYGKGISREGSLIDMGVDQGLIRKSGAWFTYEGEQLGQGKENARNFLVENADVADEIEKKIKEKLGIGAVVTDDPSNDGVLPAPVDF
Mtb growth = M. tuberculosis H37Rv growth inhibitors, H37Rv strain (AID 1626); M. tuberculosis H37Rv growth inhibition; higher % means a stronger effect; inhibition, % at 10 µM, or IC50 in µM where a hit was titrated; 220,000 tested, 0.95% active;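 active = confirmed in a dose series; inconclusive = inhibition above 80% but not taken into the dose series; inactive = below 80% or under 30% at every dose of the series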;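 note: bacteria incubated seven days before Alamar blue readout; 0% = bacteria only wells and 100% = bacteria with antibiotic wells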
Arbovirus inh = arbovirus infection inhibition. 200,000 tested, 0.37% active. arbovirus infection cell-based antiviral screen. inhibition, % at 10 µM;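 active = inhibition from about 30%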;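 note: bluetongue infection of BSR cells; cell survival read as ATP light after 72 h; 0% = infected wells without compound and 100% = uninfected wells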
Mtb bLac sens = beta-lactam sensitization of Mtb H37Rv | 330,000 tested, 0.27% active | AID 434955 | inhibition, % at 25 µM | M. tuberculosis H37Rv growth with meropenem, percent inhibition; hits of this screen are not shown here;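 active = about 74% or more and at least 40 points above the plate without the antibiotic, then above 30% in a dose series; inconclusive = first-round hits that could not be retested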;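 note: growth measured after seven days incubation then overnight dye step; 0% = bacteria only wells and 100% = bacteria with antibiotic; twin plates without the antibiotic show which effects depend on it; some results filed as inactive read as strong as hits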
YopH inh = blocks Yersinia enterocolitica YopH tyrosine phosphatase | fluorescence Ex485/Em525 | inhibition, %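 (about 10 µM by stock and volumes)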 | 140,000 tested, 0.16% active | AID 898;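 active = inhibition of 50% or more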;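 note: controls were vehicle for no effect and minimum signal wells for full effect; inactives centre near -20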
Arbovirus inh repeat = further read-out of Arbovirus inh, marked with its call; inhibition, %; measured here: 10K subset replicate screen; many hits read low in the repeat;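 first of two repeat runs on a subset; 0% = infected and 100% = uninfected wells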
* hit, by the source's call; u = inconclusive; x = not tested or not shown.

SMILES	RecA splice inh	Mtb growth	Arbovirus inh	Mtb bLac sens	YopH inh	others
O=C(O)CCC(=O)NNc1ncnc2ccccc12	-8.2	-1%	-3	-3	x
CC1CCN(C(=O)COC(=O)C2CCN(S(=O)(=O)c3ccc4c(c3)OCCO4)CC2)CC1	0.5	x	x	-5	x
O=C(Cc1cccs1)N1CCN(c2cccc(Cl)c2)CC1	1.0	8%	-1	-9	x
COc1cc(C(c2c(C)[nH][nH]c2=O)c2c(C)[nH][nH]c2=O)ccc1OC(C)C	97*	1%	-14	-5	-7
COc1ccc(OC)c(-c2nnc(SCC(=O)N3CCOCC3)o2)c1	-1.9	3%	-1	-10	34
Cc1c(OCC(=O)N2CCC(C(=O)O)CC2)ccc2c3c(c(=O)oc12)CCC3	4.8	x	x	-12	x
COc1cc(/C=N/Nc2nc(Nc3ccccc3)nc(N3CCOCC3)n2)ccc1OC(=O)c1ccco1	1.4	u	3	95	x
CN1N=C(C(C)(C)C)CSC1=Nc1ccccc1	2.2	1%	x	2	x
O=C(N/N=C/c1cccs1)c1cccc(S(=O)(=O)Nc2ccc(Cl)cc2)c1	0.1	-3%	-2	1	x
O=C1CCC(=O)N1CNc1cccnc1	4.6	-9%	12	3	-38	Arbovirus inh repeat=2
COc1cccc(OC)c1C(=O)Nn1c(-c2cccc(C)c2)nc2ccccc2c1=O	-5.1	1%	-16	-3	x
CC(N=C1CC(C)(C)CC(=O)/C1=C(/O)CCCN1C(=O)c2ccccc2C1=O)C(=O)O (configuration not stated)	-1.4	2%	2	-5	x
CCc1ccc(NC(=S)N(CCC(C)C)C2CCN(C(C)=O)CC2)cc1	2.8	x	x	-7	x
COc1cc(/C=C2\SC(=S)N(CCC(=O)N3CCCCC3)C2=O)cc(OC)c1OC	12	x	x	89	x
OCCNC(=S)Nc1cccc(Cl)c1Cl	0.6	3%	x	3	x
Cc1csc(NC(=O)Nc2ccc(Cl)cc2)n1	-1.3	-6%	3	0	-13
N#Cc1ccc(C(=O)NC2CCCCCCC2)cc1	-1.7	x	x	-2	x
Cn1c(SCC(=O)c2ccc3c(c2)OCO3)nnc1C1COc2ccccc2O1 (configuration not stated)	-1.6	-10%	-8	-20	-10
CC#CC(=O)N1CCCC(Cc2cccc(OC)c2)(C(=O)OCC)C1 (configuration not stated)	2.7	x	x	7	x
COc1ccc(Cc2nnc(NC(=O)c3ccccc3F)s2)cc1	2.5	x	x	3	x
Cn1cnnc1Sc1cc(N2CCN(S(=O)(=O)c3ccccc3)CC2)ccc1[N+](=O)[O-]	2.9	6%	-5	2	-11
Cc1c(C(=O)O)cccc1-n1c(C)cc(/C=N/NC(=O)c2cc3ccccc3o2)c1C	-3.5	4%	-2	19	-8
CNc1nc(-c2ccccc2)nc(-c2ccc(OC)cc2)c1C#N	0.8	-2%	1	-5	x
CN1CCN(C(=O)c2ccccc2NC(=O)COc2ccccc2Cl)CC1	0.4	x	x	-8	x
O=C1c2ccccc2C(=O)C1c1ccnc2ccccc12	2.3	-4%	-14	6	3
COc1cc(OC)cc(C(=O)NCc2ccc3c(c2)OCO3)c1	2.8	x	x	-4	x
CCc1ccc(N2CC(C(=O)Nc3nccs3)CC2=O)cc1 (configuration not stated)	-3.4	3%	-2	-4	-27
O=C(c1ccc2c(c1)ncn2-c1ccc(F)cc1F)N1CCC2(CC1)OCCO2	-0.7	-3%	-16	6	x
COc1ccc(-c2c(C)nc3c(-c4ccccn4)cnn3c2N)cc1	1.3	x	x	49	x
COc1ccc(-c2ccc3c(N)c(C(=O)c4ccc(OC)c(OC)c4)sc3n2)cc1	0.1	-10%	1	u	-34
O=C(OCc1nnc(-c2ccccc2)o1)c1cc([N+](=O)[O-])ccc1Cl	1.9	u	6	99	x
CC(OC(=O)CCCc1nc2ccccc2s1)C(=O)NC(N)=O (configuration not stated)	4.1	-5%	x	-13	x
CCNC(=O)NC(=O)C(C)OC(=O)c1oc2ccccc2c1CSC1CCCCC1 (configuration not stated)	-1.6	8%	-1	-1	-37
COc1cc(OC)c(NC(=O)CS(=O)(=O)Cc2nc(-c3ccc(C)cc3)oc2C)cc1Cl	2.7	4%	7	7	-49	Arbovirus inh repeat=1
COc1cccc(NC(=O)CSc2nnc(Cc3ccc(OC)c(OC)c3)o2)c1	-0.3	x	x	2	x
Cc1ccc(CNC(=O)C2CCN(c3nnc(N4CCCC4=O)s3)CC2)cc1	-7.3	x	x	-6	x
O=C1N=c2ccccc2=C1c1sc(=S)n(CC2CCCO2)c1O (configuration not stated)	0.2	7%	7	25	-34
COC(=O)c1ccccc1NC(=O)c1c(Br)cnn1C	x	-6%	6	18	-7
CCN(C(=O)COC(=O)c1c(C)nn(-c2ccccc2)c1C)C1CCS(=O)(=O)C1 (configuration not stated)	1.5	-4%	1	-7	x
CCOc1ccc(S(=O)(=O)N2CN3CCN(C3)C2)cc1	-3.8	x	x	5	x
CCCOc1cc(C)c(S(=O)(=O)N2CCOCC2)cc1C	-0.8	3%	3	-6	5
CC(C)NC(=O)c1nc2c(nnn2Cc2cccc(Cl)c2)c(=O)[nH]1	1.5	x	x	2	x
Cc1cccn2c(=O)c3cc(C(=O)NC4CCS(=O)(=O)C4)n(Cc4ccccc4)c3nc12 (configuration not stated)	-197	x	x	11	x
O=C(Cc1n[nH]c(=O)[nH]c1=O)N/N=C/c1c(O)ccc2ccccc12	-1.8	-3%	18	5	x
O=C(NCCc1ccccn1)c1cc(-c2ccc(Cl)cc2)nc2ccccc12	2.2	x	-9	94	-24
Cc1nn2cc(-c3ncc(C(F)(F)F)cc3Cl)cnc2c1Br	-1.7	0%	3	-3	x
Cc1ccc(S(=O)(=O)NCCN2CCOCC2)c(C)c1	-1.6	x	x	-5	x
COc1ccc(C2CC(=O)C3=C(C2)Nc2ccccc2NC3c2coc3ccccc3c2=O)cc1OC (configuration not stated)	x	3%	-11	-11	-27
Cn1c(=O)c2c(-c3ccccc3F)c3c(nc2n(C)c1=O)-c1ccccc1C3O (configuration not stated)	-3.9	6%	7	9	29
CCn1c(C)c(C)c2cc(C(=O)N3CCCC3)ccc21	1.4	x	x	4	x
Cc1ccc(NS(=O)(=O)N(C)C)cc1	0.1	-10%	-4	-16	-13
Cc1cc(C)n2nc(CNS(=O)(=O)c3cccc([N+](=O)[O-])c3)nc2n1	-4.3	x	x	-3	x
Clc1ccc(OCCCNCc2ccccc2)c(Br)c1	2.8	23µM*	-35	99	-33
COc1ccc(OC)c(NC(=O)c2c(NC(=O)CNCc3ccco3)sc3c2CCC3)c1	-0.4	-9%	2	47	-14	Arbovirus inh repeat=4
C=CCn1c(SCn2nnc3ccccc3c2=O)nnc1-c1ccc(Cl)cc1	-1.9	0%	7	3	-28
O=c1[nH]c2ccccc2nc1-c1ccccc1	-4.2	7%	x	-9	x
O=C(N/N=C/c1cccnc1)c1ccc([N+](=O)[O-])cc1Cl	-4.8	6%	-3	-9	-12
Cc1cc(=O)n2c3ccccc3n(CC(O)CN3CCN(Cc4ccccc4)CC3)c2c1C#N (configuration not stated)	0.9	7%	x	1	x
COc1ccc(S(=O)(=O)NNC(=O)c2ccc(-n3c(C)ccc3C)cc2)cc1	x	-10%	x	-8	x
COc1ccc(CCNC(=O)CCc2cn(C)c3ccccc23)c(OC)c1	2.8	x	x	1	x

Quoted from the listing (7 entries):
SMILES	RecA splice inh	Mtb growth	Arbovirus inh	Mtb bLac sens	YopH inh	others
CCCOc1cc(C)c(S(=O)(=O)N2CCOCC2)cc1C	-0.8	3%	3	-6	5
CC(C)NC(=O)c1nc2c(nnn2Cc2cccc(Cl)c2)c(=O)[nH]1	1.5	x	x	2	x
Cc1cccn2c(=O)c3cc(C(=O)NC4CCS(=O)(=O)C4)n(Cc4ccccc4)c3nc12 (configuration not stated)	-197	x	x	11	x
O=C(Cc1n[nH]c(=O)[nH]c1=O)N/N=C/c1c(O)ccc2ccccc12	-1.8	-3%	18	5	x
O=C(NCCc1ccccn1)c1cc(-c2ccc(Cl)cc2)nc2ccccc12	2.2	x	-9	94	-24
Cc1nn2cc(-c3ncc(C(F)(F)F)cc3Cl)cnc2c1Br	-1.7	0%	3	-3	x
Cc1ccc(S(=O)(=O)NCCN2CCOCC2)c(C)c1	-1.6	x	x	-5	x

Other compounds:
SMILES	RecA splice inh	Mtb growth	Arbovirus inh	Mtb bLac sens	YopH inh	others
COc1ccc(OC)c(NC(=O)CN2CCN(C(=O)c3ccco3)CC2)c1	-0.1	-3%	1	-9	4
COc1ccc(OCc2cc(C(=O)N3CCC(OC)CC3)no2)c2ccccc12	26	x	x	-13	x
Cn1ccnc1SCC(=O)Nc1ccc(F)c([N+](=O)[O-])c1	-0.3	-1%	6	-3	x
NS(=O)(=O)c1ccc(Nc2nc(-c3cccnc3)cs2)cc1	-2.0	x	x	3	x
COCCn1c(SCC(=O)NC(C)c2ccccc2)nc2ccccc21 (configuration not stated)	0.8	x	x	16	x
CCOC(=O)C1CCN(C(=O)CN(c2ccc3c(c2)OCCO3)S(=O)(=O)c2ccccc2)CC1	-1.3	x	x	-6	x
Cc1ccc(CNS(=O)(=O)c2ccc(C)s2)cc1	-2.5	x	x	8	x
CCOc1ccc(/C(O)=C2/C(=O)C(=O)N(CCCn3ccnc3)C2c2cccs2)cc1Cl (configuration not stated)	1.0	-10%	8	-1	-19
COc1cccc(N2CCN(C(=O)c3ccc(N4C(=O)NC5CC4(C)Oc4ccccc45)cc3)CC2)c1 (configuration not stated)	-0.5	x	-2	-10	-43
CCc1ccc(CN(C)C(=O)c2cc(S(=O)(=O)N3CCN(CC)CC3)ccc2Cl)cc1	-1.2	x	x	-11	x
Cc1cc2oc(C(=O)N(Cc3ccco3)C3CCS(=O)(=O)C3)cc(=O)c2cc1Cl (configuration not stated)	-1.6	-9%	-1	-11	-30
CN(CC(=O)Nc1ccccc1Cl)C(=O)CN1C(=O)C2CCCCC2C1=O (configuration not stated)	0.7	x	x	-5	x
COc1ccc(-c2cc(C(F)(F)F)c(C#N)c(SCC(=O)Nc3ccc(C)cc3)n2)cc1	-1.1	-2%	-1	16	-1
Cc1ccc(CNC(=O)CSc2c3c(nc4ccc(Cl)cc24)CCCC3)o1	8.0	-3%	8	-1	-16
O=S(=O)(NCCc1cn2ccccc2n1)c1cccs1	0.2	7%	-5	-1	-47
O=C(CSc1nnnn1-c1ccc(Cl)cc1)Nc1cccnc1Cl	1.2	2%	4	-11	-51
O=C(c1cc2ccccc2o1)N1CCC(N2CCC(C(=O)N3CCCC3)CC2)CC1	0.6	8%	12	-1	x
CCC(C)OC(=O)c1[nH]c2c(c1C)C(=O)CC(c1ccc(N(C)C)cc1)C2 (configuration not stated)	7.5	14%	-12	-9	-13
COC(=O)C1=C(CSc2nncn2C)NC(=O)NC1c1cc(C)ccc1C (configuration not stated)	12	5%	10	6	28
NC(=O)c1ccc(-n2nnnc2SCc2ccccc2)cc1	-2.1	10%	1	-5	-36
Cc1cc(C(=O)OCC(=O)NC2CCS(=O)(=O)C2)c(C)n1-c1ccccc1 (configuration not stated)	0.1	-9%	1	-2	-58
CC1CCc2nc(NC(=O)C3COc4ccccc4O3)sc2C1 (configuration not stated)	3.2	41%	28	x	-25
NS(=O)(=O)c1ccc(NC(=O)/C=C/c2ccccc2[N+](=O)[O-])cc1	x	-3%	4	-3	x
COc1cc(OC)cc(-n2nnnc2SCC(=O)NCc2cccs2)c1	-1.7	-6%	2	6	x
COc1ccc(C(=O)Nc2ccc(SC(F)F)cc2)cc1	4.5	5%	-2	1	-5
CC(C)(C)NC(=O)Nc1cccc(Cl)c1Cl	x	3%	18	-4	x
CC(O)CNc1nc2c(c(=O)n(C)c(=O)n2C)n1C/C=C/c1ccccc1 (configuration not stated)	x	-8%	5	-9	-35
Cc1cccc(NC(=O)CSc2nc(N)c(NC(=O)c3cccs3)c(=O)[nH]2)c1	-11	2%	2	3	-35
O=C(Nc1ccc(F)cc1)Nc1nnc(-c2ccco2)s1	1.9	-6%	22	1	x
O=C(O)c1cc2c(o1)CCC/C2=N\O	-6.2	-4%	4	u	-8
Brc1ccc(-c2nn[nH]n2)cc1	x	5%	x	-2	x
CCOC(=O)NCc1ccc(S(=O)(=O)Nc2ccccc2C)cc1	-0.9	3%	0	-12	-34
Cc1oc(-c2cccc3ccccc23)nc1CN1CCC[C@H]1CO	3.5	-5%	3	36	x

By substructure: the compounds so far containing a CF3 group
SMILES	RecA splice inh	Mtb growth	Arbovirus inh	Mtb bLac sens	YopH inh	others
Cc1nn2cc(-c3ncc(C(F)(F)F)cc3Cl)cnc2c1Br	-1.7	0%	3	-3	x
COc1ccc(-c2cc(C(F)(F)F)c(C#N)c(SCC(=O)Nc3ccc(C)cc3)n2)cc1	-1.1	-2%	-1	16	-1

Screening results from PubChem BioAssay.

A portion of the library (hit frequency here may not be typical).
